SmPrx2 inh: Schistosoma mansoni Prx2 inhibition. hit rate 0.07% among 65,000. S. mansoni Prx2 activity coupled to TGR/GSH (TGR is thioredoxin glutathione reductase), NADPH fluorescence loss, qHTS; some inactives read as strong as hits. Potency, µM; active means full or partial inhibition curve with a strong effect at the top dose; inconclusive means weaker partial or single-point curve; inactive means no accepted curve; further: series up to 57 µM; many of its hits are not listed in these tables
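Prx2 activity was followed as the loss of NADPH fluorescence (ex 365/em 450 nm), read every 30 sec for 8 min after H2O2 start. The enzyme mix (50 nM Prx2, 25 nM TGR, GSH, NADPH; pH 7.4 phosphate buffer) was incubated with compound for 15 min at room temperature first.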
Anthrax LT inh: anthrax lethal toxin internalization inhibition | Cells, anthrax lethal toxin internalization, FRET ratio (460/530) | Potency, µM (series often up to 40 µM), for inactives: at the highest dose activity change, negative = inhibition, most hits filed as inhibitors | hit rate 0.67% among 70,000 | AID 912; active = well fitted falling ratio curve with the 530 nm signal flat; inconclusive = other ratio curves, or a change in one channel alone; inactive = flat curves in the ratio and both channels; the % refers to the ratio; further: on the % scale 0 is the no-effect control and ±100 the full control effect; nearly all actives have a fitted effect of over 50% in size; tested in ME-180 cells; beta-lactamase reporter
* hit, by the source's call; u = inconclusive; x = not tested or not shown; & = joins results of further samples; [ ] = remark or other dose. Potency means the concentration at half of the fitted maximal effect.

Molecule	Anthrax LT inh	SmPrx2 inh
C=CCc1cccc2cc(C(=O)N(CC)CC)c(=O)oc12	5%	x
Cc1noc(C)c1CSc1nnc2scc(-c3ccc(Cl)cc3)n12	-11%	>57
COC(=O)c1sc2cnccc2c1N	29%	x
Cc1c(C(=O)NCc2cccnc2)oc2ccc(S(=O)(=O)N3CCCC(C)C3)cc12 (centres undefined)	5%	>57
COC(=O)c1ccccc1NC(=O)c1cc(-c2ccc(OC)c(OC)c2)on1	7%	>57
CCCC(c1nnnn1CS(=O)(=O)c1ccc(C)cc1)N1CCN(c2ccccc2)CC1 (centres undefined)	u	>57
CC(NC(=O)Cn1cnc2c1c(=O)n(C)c(=O)n2C)c1ccccc1 (centres undefined)	6%	x
O=C(CCn1c(=O)oc2ccccc21)N1CCN(c2ccccc2F)CC1	-5%	>57
CCCCNc1cc(C(=O)O)cc(S(N)(=O)=O)c1Oc1ccccc1	-5%[3.58 µM]	>57&>57
COc1ccc2[nH]cc(CCNc3ncncc3-c3ccoc3)c2c1	-23%	>57
Cc1cc(-c2ccco2)n(CC(=O)NCCN(C)C)n1	-7%	>57
Cc1nc2oc3c(NCC4CCCO4)ncnc3c2c2c1COC(C)(C)C2 (centres undefined)	-4%	>57
N#CC1=C(N)Oc2cc3c(cc2C1c1ccc(Cl)cc1)OCO3 (centres undefined)	u	>57
CC(C)c1ccccc1S(=O)(=O)c1cc(N)c2ncccc2c1[N+](=O)[O-]	5%	x
O=C(CCC1CCCCC1)Nc1c[nH]c(=O)[nH]c1=O	0%	>57
Cc1occc1-c1nnc(SCC(=O)c2ccc(Cl)cc2)n1C	-12%	>57
N#Cc1nc(COc2cccc(Cl)c2)oc1NCc1ccncc1	-3%	>57
COc1cccc(OC)c1OCC(O)CN1CCN(c2ccccc2)CC1 (centres undefined)	-2%	>57
COc1ccccc1-c1nc(C(N)=O)c2[nH]c(=O)n(-c3cccc(C)c3)c2n1	-12%	>57
O=C1C2=CC[C@H]3C(=O)N(C4CCCCC4)C(=O)[C@@H]3[C@@H]2[C@H](O)[C@@H]2O[C@H]12	9%[8 µM]	x
COc1cc(CSc2ncn[nH]2)c(OC)cc1CSc1ncn[nH]1	-7%	>57
CCCCS(=O)(=O)N1CN(S(=O)(=O)CCCC)C2NC(=O)NC21 (centres undefined)	7%	>57
CCOC(=O)C1CCN(C(=O)c2cc(S(=O)(=O)N3CCOCC3)c(Cl)cc2Cl)CC1	4%	>57
COc1ccc(OC)c(NC(=O)CCN2CCCC(C)C2)c1 (centres undefined)	-8%	>57
O=C(CSc1nnnn1-c1ccccc1)Nc1nsc(-c2ccc(Cl)cc2)n1	-14%	>57
NCCNCCNCCNCCN	u	x
Cn1c2c(c(=O)n(C)c1=O)C1c3ccccc3OCC1C(C)(C)O2 (centres undefined)	5%	>57
CC(C)C(c1nnnn1C1CCCCC1)N1CCOCC1 (centres undefined)	-20%	>57
N#Cc1ccc(CN2CCC3(CC2)CCN(C(=O)c2ccncc2)CC3)cc1	u	>57
Cc1ccc2c(c1)c1ncnc(N3CCN(c4ccccc4)CC3)c1n2C	-4%	>57
CCCc1[nH]nc2c1C(C1CCCCC1)C(C#N)=C(N)O2 (centres undefined)	-13%	>57
CCOC(=O)C1CCN(Cc2coc3ccc(Cl)cc3c2=O)CC1	-6%	>57
CCc1c(C)nc(N)n2c(SCC(=O)N3CCCc4ccccc43)nnc12	15%	>57
Cc1ccc(NC(=O)COC(=O)c2ccc3c(c2)NC(=O)C2CCCN32)cc1 (centres undefined)	u	>57
COc1ccc(N2CCN(C(=O)CSc3ncnc4c3cnn4-c3ccc(OC)cc3)CC2)cc1	-6%	>57
CC(C)C(c1nnnn1Cc1ccccc1)N1CCN(Cc2ccc3c(c2)OCO3)CC1 (centres undefined)	-18%	>57
CCN(CC)CCCNC(=O)c1cc2c(=O)n(C)c3ccccc3c2n1C	10µM*	x
CCOC(=O)N1CCN(C(=O)c2oc3ccc(S(=O)(=O)N4CCCCCC4)cc3c2C)CC1	0%	>57
Nc1nonc1-c1nc2ccccc2n1Cc1ccc(Cl)cc1	2%	>57
Cc1nn(-c2nc3ccccc3[nH]2)c(N)c1-c1ccccc1	u	>57
CC1C(C#N)=C(N)OC2=C1C(=O)CC(C)(C)C2 (centres undefined)	-3%	>57
CCOC(=O)c1ccc(N2C(=O)c3n[nH]c(C)c3C2c2ccccc2)cc1 (centres undefined)	x	>57
CN(C)C(=O)CN1C(=O)C2CCCCN2C(=O)c2ccccc21 (centres undefined)	5%	>57
COC(=O)c1ccccc1NC(=O)N1c2ccccc2CC1C (centres undefined)	16µM*	>57
N#CC1=C(N)Oc2cc(O)ccc2C1C1CCCCC1 (centres undefined)	-25%	x
Cc1cc(NS(=O)(=O)c2ccc(NC(=O)Nc3cccc(Cl)c3)cc2)no1	-10%	>57
CN1CCN(C(=O)c2cc3c(n(-c4ccccc4)c2=O)CC(C)(C)CC3=O)CC1	-11%	>57
C=C1C(C(=O)N2CCOCC2)C1C(=O)N1CCOCC1 (centres undefined)	-7%	>57
O=S(=O)(NC1=NCCCCC1)c1cccs1	-1%	>57
Cc1ccc(-c2nnc(COc3cccc(-n4cnnn4)c3)o2)cc1	10%	>57
CCOC(=O)C1=C(C)N=C2SC(CC)C(=O)N2C1c1cccc(F)c1 (centres undefined)	-12%	>57
CCc1c(C)nc2ncnn2c1Nc1ccc(C#N)c(Cl)c1	4%	>57
CN(C)CCCNc1c2c(nc3ccc(Cl)cc13)CCCC2	u	>57
Cc1ccc(NC(=O)C2CCCN(S(=O)(=O)c3c(C)noc3/C=C/N(C)C)C2)cc1F (centres undefined)	-12%	>57
COc1ccccc1C1CC(c2ccc(C)cc2)Nc2ncnn21 (centres undefined)	u	>57
O=C(NC(=O)c1ccc(Cl)c(Cl)c1)OC1CCS(=O)(=O)C1 (centres undefined)	-1%	>57
C[C@H](O/N=C1/[C@H]2O[C@@H]2[C@@H](O)[C@H]2[C@H]1CCn1c(=O)n(-c3ccccc3)c(=O)n12)c1cn([C@H](CO)Cc2ccccc2)nn1	5%&1%[8 µM]	x
OC(COCC1COc2ccccc2O1)CN1CCc2ccccc2C1 (centres undefined)	u	>57
CCOC(=O)Nc1ccc2c(c1)ncn2C1CCCCC1	10%	>57
Cc1nccc2c1[nH]c1ccccc12	u	>57&>57&>57

The list goes on:
Molecule	Anthrax LT inh	SmPrx2 inh
COC(=O)c1cccc(NC(=O)CN2CCOCC2)c1	-1%	>57
O=C(Nc1ccon1)c1cnc2sccn2c1=O	3%	>57
COc1ccc2c(C)c(C(=O)NCC(C)O)oc2c1OC (centres undefined)	5%	x
Cc1noc(C)c1S(=O)(=O)N1CCC(Cc2ccccc2)CC1	-15%	>57
COC(=O)[C@@H]1C[C@H]1[C@@H](NC(=O)c1cc(C)nn1C)c1ccccc1	-6%	>57
O=C(Cn1c(C(=O)N2CCN(C3CCCCC3)CC2)cc2sccc21)c1ccccc1	-2%	>57
CCCC(C(=O)NCC1CCCO1)N(Cc1ccco1)C(=O)CNS(=O)(=O)c1ccc(F)cc1 (centres undefined)	u	>57
COc1ccc(C2C(=O)N(CCc3ccccc3)CC(=O)N2C2CCCC2)cc1 (centres undefined)	u	>57
O=C(CS(=O)(=O)c1cn(Cc2ccc(F)cc2)c2ccccc12)N1CCCCC1	-5%	>57
COc1ccccc1-c1cncnc1N(C)Cc1ccco1	-9%	>57
Cn1c(Cc2csc(N)n2)nnc1SCC(=O)NC1CCCCC1	5%	>57
Cc1noc(C)c1C(=O)Nc1nnc(-c2ccccc2)s1	8%	>57
O=C(c1ccc(S(=O)(=O)N2CCOCC2)cc1)N1CCN(c2ccccc2F)CC1	-17%	>57
Cc1ccc(S(=O)(=O)OCC(=O)O)cc1	-3%[8 µM]	>57
CCOC(=O)c1c(CN2CCOCC2)n(C)c2cc(Br)c(O)c(CN(C)C)c12	u	>57
CC[C@@H]1[C@H]2CCCCN3[C@@H]2[C@@H](C[C@H]3[C@@H]2C[C@H](C)C(=O)O2)[C@@H]2[C@H]1OC(=O)[C@H]2C	u	>57
COc1cccc(N(CC(=O)NCCSc2ccccc2)S(C)(=O)=O)c1	-2%	>57
NC(=O)c1cc(N)ccc1N1CCCC1	-9%	>57
COc1ccc(CCNC(=O)C2CCCN(Cc3nc(-c4cccc(Cl)c4)oc3C)C2)cc1OC (centres undefined)	16%	>57
Cc1cc(NC2C3CC4CC(C3)CC2C4)n2ncnc2n1 (centres undefined)	-15%	>57
Cc1onc(-c2c(F)cccc2Cl)c1C(=O)N[C@H]1C(=O)N2[C@H]1SC(C)(C)[C@H]2C(=O)O	4%[3.58 µM]	>26
CCN1C(=O)c2cccc3c(S(=O)(=O)NC(Cc4c[nH]c5ccccc45)C(=O)O)ccc1c23 (centres undefined)	2%	>57
CCN(C(=O)c1cc2cc3ccc(C)cc3nc2o1)c1ccc(OC)cc1	-1%	>57
Cc1cccc(NC(=O)CC(C)(C)C)c1	0%	>57
CCOC(=O)N1CCN(CC(=O)Nc2ccc(C)c(Br)c2)CC1	4%	>57
Cn1cccc1C(=O)N1CCC2(CC1)CN(C(=O)Nc1cccc(F)c1)C2	-3%	>57
C[C@@]12CC[C@@H]3c4ccc(O)cc4C[C@H](CCCCCCCCCS(=O)CCCC(F)(F)C(F)(F)F)[C@H]3[C@@H]1CC[C@@H]2O (some centres undefined)	u	>57
Cn1c(=O)[nH]c(=O)c2c1nc(N1CCNCC1)n2Cc1cccc2ccccc12	-3%	>57
CSc1ccc(C2C(C#N)=C(N)N(c3ccccc3)C3=C2C(=O)CCC3)cc1 (centres undefined)	u	>57
COC(=O)c1ccc(CSc2ncnc3ccccc23)o1	-15%	>57
CCCCNC(=O)CN1CCC2(O)CCCCC2C1c1ccccc1OC (centres undefined)	-11%	>57
COC(=O)c1sc2ccccc2c1N	-6%	>57
CCCc1cc(=O)[nH]c(SCC(=O)N2CCN(S(=O)(=O)c3ccc(C)cc3)C2)n1	0%	>57
Cc1cccc(C(=O)OCc2cc3ccccc3[nH]c2=O)c1	2%	>57
CC(=O)NC(c1ccccc1)c1nc2ccccc2[nH]1 (centres undefined)	3%	>57
COc1c[nH]n(C2CCCCC2)c(=O)c1=O	4%	x

By substructure, those above with bromine (2)
Molecule	Anthrax LT inh	SmPrx2 inh
CCOC(=O)c1c(CN2CCOCC2)n(C)c2cc(Br)c(O)c(CN(C)C)c12	u	>57
CCOC(=O)N1CCN(CC(=O)Nc2ccc(C)c(Br)c2)CC1	4%	>57

A second format for part of the listing above.
NC(=O)c1cc(N)ccc1N1CCCC1
  Anthrax LT inh: -9% | SmPrx2 inh: >57

COc1ccc(CCNC(=O)C2CCCN(Cc3nc(-c4cccc(Cl)c4)oc3C)C2)cc1OC (centres undefined)
  Anthrax LT inh: 16% | SmPrx2 inh: >57

Cc1cc(NC2C3CC4CC(C3)CC2C4)n2ncnc2n1 (centres undefined)
  Anthrax LT inh: -15% | SmPrx2 inh: >57

Next part.
Molecule	Anthrax LT inh	SmPrx2 inh
Cc1cc(NC(=O)COC(=O)c2c(C)nn(Cc3ccccc3)c2Cl)no1	-5%	>57
CC1(C)C(=O)N(CCN2CCC(C(=O)c3ccc(F)cc3)CC2)c2ccccc21	-9%	>57
Clc1cc2c(c(Cn3cnc4ccccc43)c1)OCOC2	-11%	>57
Cc1oc(-c2ccc(Cl)cc2)nc1CN1CCCC(C(=O)N2CCc3ccccc32)C1 (centres undefined)	8%	>57
CS(=O)(=O)c1ccc(CNC(=O)[C@@H]2C[C@H]2[C@@H](NP(=O)(c2ccccc2)c2ccccc2)c2ccccc2)cc1	10%	>57
CCOC(=O)[C@H](N)/C=C(\C)CP(=O)(O)O	u	>57
O=C(CSc1nnc(-c2cccnc2)n1Cc1ccco1)Nc1nc(-c2ccc(F)cc2)cs1	u	>57
CCCc1nc2ccccc2c(=O)n1/N=C/c1c(C)[nH]n(-c2ccc(C)cc2)c1=O	-2%	>57
CCn1c(C)nc2cc(C(=O)n3cc(C(=O)c4cc(F)ccc4O)cn3)ccc21	-6%	>57
O=C(CSC1=NCCS1)N1CCOCC1	0%	>57
COc1ccc(-n2nnc3c(=O)n(Cc4cccc(C)c4)cnc32)cc1	-4%	>57
CCOC(=O)C1CCN(C(=O)Nc2ccc(Cl)cc2Cl)CC1	-10%	>57

An excerpt; count on the stated rates, not on these rows.
